PAFAH1B2 inh – blocks human PAF acetylhydrolase 1b catalytic subunit 2; P68402; recombinant PAFAH1B2, FP-rhodamine activity probe, fluorescence polarization; inhibition, % at 3.39 µM; 340,000 compounds, 1.2% hits;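 active means inhibition above the mean of all tested compounds plus 3 SD, cut at about 24% in these data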;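 further: 0% = enzyme with DMSO and 100% = wells lacking PAFAH1B2; many of its hits are not listed in these tables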
PAFAH1B3 inh – inhibitors of human PAFAH1B3 | inhibition, % at 3.39 µM | recombinant PAFAH1B3, FP-rhodamine probe, fluorescence polarization | 340,000 compounds, 0.28% hits | Q15102;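 active means inhibition above the screen-wide average of all tested compounds plus 3 SD, cut at about 25% in these data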;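 further: 0% = enzyme with DMSO only and 100% = wells lacking PAFAH1B3 protein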
Target sequence (Q15102 whole entry, looked up): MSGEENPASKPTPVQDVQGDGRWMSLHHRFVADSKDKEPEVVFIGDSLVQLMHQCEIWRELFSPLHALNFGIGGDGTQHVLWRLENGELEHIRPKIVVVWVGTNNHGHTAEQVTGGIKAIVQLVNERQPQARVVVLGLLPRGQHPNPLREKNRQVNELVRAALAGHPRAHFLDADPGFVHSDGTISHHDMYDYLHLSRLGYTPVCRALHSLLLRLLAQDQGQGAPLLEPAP
PREPL inh – inhibits the human prolyl oligopeptidase-like enzyme | Q4J6C6 | recombinant PREPL, fluorescence polarization activity-based probe | inhibition, % at 5.96 µM | 320,000 compounds, 0.68% hits | AID 2751; in the data active means inhibition above about 43%;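 further: 0% = enzyme with DMSO and 100% = wells lacking enzyme; many of its hits are not listed in these tables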
LYPLA2 counter – LYPLA2 (human) inhibition in PME1 counter-screen; recombinant LYPLA2, FP-Rh probe fluorescence polarization; inhibition, % at 5.9 µM; 320,000 compounds, 0.38% hits; AID 2177;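 active means inhibition above the screen-wide mean plus 3 SD, limit set per campaign, cut at about 26% in these data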;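 further: 0% = LYPLA2 with DMSO and 100% = wells lacking LYPLA2 enzyme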
GSTO1 counter – counter-screen for RBBP9 inhibitors: inhibitors of human GSTO1; P78417; recombinant GSTO1, activity-based probe fluorescence polarization; inhibition, % at 5.96 µM; 300,000 compounds, 1.1% hits; AID 1974;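 active means inhibition above the campaign mean inhibition plus 3 SD, cut at about 35% in these data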;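 further: 0% = GSTO1-1 with DMSO and 100% = wells lacking GSTO1-1 enzyme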
Target sequence (P78417 whole entry, looked up): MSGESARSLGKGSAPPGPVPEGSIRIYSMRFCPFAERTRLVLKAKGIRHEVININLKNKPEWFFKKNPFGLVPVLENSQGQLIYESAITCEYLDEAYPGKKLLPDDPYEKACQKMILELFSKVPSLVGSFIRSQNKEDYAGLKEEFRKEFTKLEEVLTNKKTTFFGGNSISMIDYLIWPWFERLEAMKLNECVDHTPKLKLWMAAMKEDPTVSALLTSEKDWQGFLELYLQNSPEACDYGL
LYPLA1 counter – blocks human lysophospholipase 1, a PME1 counter-screen; 320,000 compounds, 0.16% hits; inhibition, % at 5.9 µM; recombinant LYPLA1, FP-Rh probe fluorescence polarization;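 active means inhibition above the mean of all tested compounds plus 3 SD, set per campaign, cut at about 14% in these data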;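 further: inhibitors block serine hydrolase probe labeling of LYPLA1 so polarization falls; 0% = enzyme with DMSO and 100% = wells lacking LYPLA1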
Target sequence (O75608 whole entry, looked up): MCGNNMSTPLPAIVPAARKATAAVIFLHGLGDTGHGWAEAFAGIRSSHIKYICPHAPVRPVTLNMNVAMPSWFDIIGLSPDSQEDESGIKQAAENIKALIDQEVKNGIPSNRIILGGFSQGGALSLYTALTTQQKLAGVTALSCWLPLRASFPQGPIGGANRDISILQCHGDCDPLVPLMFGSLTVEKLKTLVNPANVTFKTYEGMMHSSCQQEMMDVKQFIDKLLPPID
PAFAH2 FP inh – PAFAH2 (human) inhibition; 340,000 compounds, 0.99% hits; inhibition, % at 3.39 µM; Q99487; AID 492956; recombinant PAFAH2, FP-rhodamine activity probe, fluorescence polarization;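 active means inhibition above the mean over all tested compounds plus 3 SD, cut at about 30% in these data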;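 further: inhibitors block probe labeling of enzyme so polarization drops; 0% = enzyme with DMSO and 100% = wells lacking PAFAH2 protein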
PAD4 FP inh – inhibitors of human PAD4. Q9UM07. recombinant PAD4, RCA probe fluorescence polarization. inhibition, % at 6.36 µM. 330,000 compounds, 0.41% hits;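 active means percent inhibition above a cutoff equal to the mean of all tested compounds plus 3 SD, cut at about 15% in these data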;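 further: 0% = PAD4 with RCA probe and DMSO and 100% = probe without PAD4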
Starred values were filed as active, the others as inactive; · = not tested or not shown.

Below each compound: PAFAH1B2 inh	PAFAH1B3 inh	PREPL inh	LYPLA2 counter	GSTO1 counter	LYPLA1 counter	PAFAH2 FP inh	PAD4 FP inh
> Cc1nn(-c2ccccc2)c2[nH]c(=O)c(CNCCN3CCOCC3)cc12
→ 3	3	-2	-6	-9	1	-4	-1
> CS(=O)(=O)c1ccc(-c2sc3ccccc3c2C#CCCO)cc1
→ -1	4	32	·	·	·	-5	-2
> O=C1C2CCCN2C(=O)N1CCCCN1CCN(c2cccc(Cl)c2)CC1 (stereo not drawn)
→ 5	1	21	39*	0	1	3	-1
> COc1cccc(CNC(=O)COc2cc3c(c4oc(=O)cc(C)c24)CCC(C)(C)O3)c1
→ 34*	1	13	5	-2	2	26	-3
> CCC(=O)c1ccc(OCC(=O)N2CCN(C(=O)c3ccccc3)CC2)cc1
→ 2	2	5	3	·	0	-1	1
> COc1cc(OC)cc(-c2c(-c3ccc(F)cc3)c3cc(-c4cccc5[nH]ccc45)ccc3n2C)c1
→ 6	-1	4	-8	·	-1	6	-6
> Cc1ccc(NS(=O)(=O)c2cccc(C(=O)NCCCn3ccnc3)c2)cc1
→ -1	2	4	5	13	2	3	0
> O=C(/C=C/c1ccccc1Cl)NCc1ccco1
→ -2	1	0	-5	-5	0	1	5
> Cc1ccc(C(=O)NCCSC2CCCCC2)cc1S(=O)(=O)Nc1ccccc1
→ 7	4	1	-11	-6	-8	8	-4
> CCOc1ccc(NS(=O)(=O)c2ccc(NS(=O)(=O)c3ccccc3)cc2)cc1
→ 4	-2	-5	-2	5	-4	-7	1
> C=Cc1ccc(C(=O)N2CCCC(CCC(=O)N3CCN(c4ccccn4)CC3)C2)cc1 (stereo not drawn)
→ 4	7	10	-4	8	0	1	-1
> Cc1ccc2nc(-c3cccc(NS(C)(=O)=O)c3)cc(-c3ccccc3)c2c1
→ -9	-4	-10	-42	11	-19	-23	-1
> CCOC(=O)N1CCN(C(=O)CN(c2ccc3c(c2)OCO3)S(C)(=O)=O)CC1
→ 2	-3	14	7	7	0	-9	5
> Cc1nnc(-c2cccc(Br)c2)c2cn(-c3ccccc3Cl)nc12
→ 3	4	5	4	1	-1	11	-2
> COc1ccccc1-n1c(SCC(=O)Nc2ccc(Br)cc2)nc(O)cc1=O
→ -3	1	-11	-13	3	-10	0	4

Printed as active in PAFAH1B2 inh, of those listed so far:
SMILES	PAFAH1B2 inh	PAFAH1B3 inh	PREPL inh	PAFAH2 FP inh	PAD4 FP inh
COc1cccc(CNC(=O)COc2cc3c(c4oc(=O)cc(C)c24)CCC(C)(C)O3)c1	34*	1	13	26	-3

Carrying on:
Below each compound: PAFAH1B2 inh	PAFAH1B3 inh	PREPL inh	LYPLA2 counter	GSTO1 counter	LYPLA1 counter	PAFAH2 FP inh	PAD4 FP inh
> COc1cccc(/C=C/C(=O)c2cccc([N+](=O)[O-])c2)c1
→ -2	2	12	1	-9	-1	-2	1
> CC(=O)c1ccc(N2CCN(C(=O)/C=C/c3ccc(S(=O)(=O)NCc4ccco4)cc3)CC2)cc1
→ 0	0	-10	16	-16	-3	-1	-1
> CCOc1ccc(NS(=O)(=O)c2ccc(C(=O)NCC(c3cccs3)N3CCOCC3)cc2)cc1 (stereo not drawn)
→ 4	9	11	0	6	1	-5	-1
> C=CCn1c(SCC(=O)Nc2ccc3c(c2)OCCO3)nc2cc(C(=O)O)ccc2c1=O
→ 6	-3	1	-2	·	-1	10	-1
> N#Cc1c(Oc2ccc3ccccc3c2)sc(C(=O)c2ccccc2)c1N
→ -3	-8	-1	6	-2	1	-13	-5
> Cc1cccc(NS(=O)(=O)c2ccc(NS(=O)(=O)c3cccs3)cc2)c1
→ 1	4	-5	-2	1	-6	0	-1
> O=C(NNC(=S)Nc1cccc(C(F)(F)F)c1)c1cccc(Cl)c1
→ 13	13	3	-5	-3	-6	14	5
> Cc1ccc(NS(=O)(=O)c2ccc(CCC(=O)N3CCCC3)cc2)cc1
→ 20	3	9	-7	0	0	4	-4
> C=CCSc1cc(C)nc2c(-c3ccc(Cl)cc3)c(C)nn12
→ 1	4	0	-8	0	-3	4	-147
> Cc1ccn2c(=O)nc(SCC(=O)N3CCC(Cc4ccccc4)CC3)nc2c1
→ 4	1	9	8	1	1	9	0
> O=C(/C=C/c1ccc(Cl)cc1Cl)NCCSCc1ccccc1
→ 2	-2	-21	-39	-7	-22	-24	-2
> COc1ccccc1C(=O)O/N=C(/c1ccncc1)c1ccc([N+](=O)[O-])cc1
→ 56*	1	26	-10	3	-3	11	-4
> CCOC(=O)C1CCN(C(=O)c2ccc(Oc3cc(Cl)cc(Cl)c3)o2)CC1
→ 4	4	27	27*	1	4	26	0
> CCOc1ccc(CC(=O)Nc2sc(Cc3ccccc3)cc2C(N)=O)cc1OCC
→ 3	11	-3	-3	4	-5	1	-3
> CC(C)c1cc(=O)n2[nH]c(SCc3ccccc3Cl)nc2n1
→ 9	8	11	2	-32	2	56*	-5
> CCOc1ccc(NS(=O)(=O)c2ccc(C(=O)NCc3cccnc3)cc2)cc1
→ 0	1	2	-2	17	2	8	-1
> CC1=C(C(=O)Nc2cccc(C(=O)N3CCN(c4cccc(C(F)(F)F)c4)CC3)c2)SCCO1
→ 2	5	35	19	4	-6	0	0
> CCc1cc(=O)oc2c3c(cc(OCC(=O)NCCCOC)c12)OC(C)(C)CC3
→ 7	8	-9	1	4	-1	35*	-2
> COc1cc(OC)cc(-c2c(-c3cccs3)c3cc(-c4cccc5[nH]ccc45)ccc3n2C)c1
→ -7	6	8	10	·	-2	5	-5
> COc1ccc(NC(=O)COC(=O)CNS(=O)(=O)c2ccc(F)c(F)c2F)cc1OC
→ 6	1	19	6	0	3	-1	3
> Cc1cccc(C)c1NC(=O)COC(=O)c1cc(S(=O)(=O)Nc2ccc(Cl)cc2)ccc1O
→ 29*	11	-4	·	·	·	10	-3
> COC(=O)C1C(O)=C(C=NCC(C)N=CC2=C(O)C(C(=O)OC)C(C)(C)CC2=O)C(=O)CC1(C)C (stereo not drawn)
→ 4	6	0	-2	3	3	4	0
> COC(=O)[C@@]12CCCN1[C@H](c1ccc(SC3CCCCC3)cc1)[C@H]1C(=O)N(C)C(=O)[C@H]12
→ 4	1	-7	2	2	-3	7	-3
> COc1ccc(NS(=O)(=O)c2cccc(C(=O)OCC(=O)Nc3cc(C)on3)c2)cc1
→ 2	6	24	9	9	-1	-2	0
> COc1ccc(-n2cnnc2SCC(=O)Nc2cc(S(=O)(=O)N3CCCCC3)ccc2C)cc1
→ 16	5	2	1	1	-3	9	0
> O=C(COc1ccc(F)cc1Cl)N1CCN(C(=O)c2cccs2)CC1
→ -4	2	20	·	·	·	2	-5
> CN(C(=O)COc1cc(=O)n(C)c2ccccc12)c1ccc(Cl)cc1
→ 11	11	1	-4	-3	-2	9	0
> O=c1[nH]c(NCc2ccccc2)nc2c1CCCC2
→ 2	2	19	-4	-2	-2	9	2
> COc1ccc2c(-c3ccccc3)cc(SC(C)C(N)=O)nc2c1 (stereo not drawn)
→ 4	1	18	-8	-17	-3	4	-3

Entries shown so far that have an NH in an aromatic ring, in the order listed:
Below each compound: PAFAH1B2 inh	PAFAH1B3 inh	PREPL inh	LYPLA2 counter	GSTO1 counter	LYPLA1 counter	PAFAH2 FP inh	PAD4 FP inh
> Cc1nn(-c2ccccc2)c2[nH]c(=O)c(CNCCN3CCOCC3)cc12
→ 3	3	-2	-6	-9	1	-4	-1
> COc1cc(OC)cc(-c2c(-c3ccc(F)cc3)c3cc(-c4cccc5[nH]ccc45)ccc3n2C)c1
→ 6	-1	4	-8	·	-1	6	-6
> CC(C)c1cc(=O)n2[nH]c(SCc3ccccc3Cl)nc2n1
→ 9	8	11	2	-32	2	56*	-5
> COc1cc(OC)cc(-c2c(-c3cccs3)c3cc(-c4cccc5[nH]ccc45)ccc3n2C)c1
→ -7	6	8	10	·	-2	5	-5
> O=c1[nH]c(NCc2ccccc2)nc2c1CCCC2
→ 2	2	19	-4	-2	-2	9	2

From PubChem

The list is partial, so the mix of outcomes need not match the whole.
